# YB-1 expr inh – inhibitors of YB-1 gene expression, primary screen, cell-based, fluorescence | delta delta Cp (YB-1 minus CDIP) (concentration not given with the values) | AID 434959, 2010 | U2OS, qRT-PCR YB-1 vs CDIP delta delta Cp, 16 h; active compounds read high; zero = DMSO, each unit about twofold | 30,000 tested, 0.37% active;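 active = delta delta Cp rounded down to an integer at or above 3, about 3 SD of DMSO wells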;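 note: higher means less YB-1 transcript or more CDIP transcript relative to DMSO; stock transfer was 100 nL into about 100 µL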
# Hedgehog inh – Hedgehog pathway signaling inhibitors, primary screen, luminescence, Shh-LIGHT2 cells, Gli-luciferase; Shh-LIGHT2 Gli-luciferase reporter, 30 h; inhibition, % (test concentration not listed); 22,000 tested, 2.1% active; AID 2313, 2010;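 active = replicate mean of 65% or more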;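 note: pathway switched on by Shh-conditioned medium diluted 1 in 25 in low serum; 100 nL library stock added to about 40 µL; 0% = median of neutral wells and 100% = positive control level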
# MITF inh – inhibitors of MITF, primary screen, MITF inhibitor project, cell-based, luminescence; TRPM1 promoter luciferase, 24 h; inhibition, % (no concentration beside the values); 37,000 tested, 0.28% active; AID 2240, 2010;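 active = most replicates at 85% or more, or half of them and the mean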;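 note: human melanocyte line stably carrying TRPM1 promoter luciferase reporter; 0% = vehicle wells and 100% = a positive control; the first replicate is given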
# PD-1 reversal – activators reversing PD-1 mediated T-cell inhibition, primary screen, luminescence, primary human CD4 T cells, PD-L1 beads; CellTiter-Glo 96 h; activation, % (concentration not given with the values); 29,000 tested, under 10 active;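 active = replicate mean of 50% or more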;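 note: 0% = median vehicle wells and 100% = positive control; 100 nL library stock added to about 50 µL; numbers are from one replicate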
# Numbers without * were called inactive; x = not tested or not shown. The list is partial (hit frequency here may not be typical).
SMILES,YB-1 expr inh,Hedgehog inh,MITF inh,PD-1 reversal
C[C@@H]1CN([C@@H](C)CO)C(=O)c2cc(NC(=O)CCC(F)(F)F)ccc2O[C@H]1CN(C)S(=O)(=O)c1cccs1,0.0412,x,-7.6,0.5
C[C@@H]1CN([C@@H](C)CO)C(=O)c2cccc(NC(=O)C3CC3)c2O[C@H]1CN(C)S(C)(=O)=O,-0.0784,7.1,-12.9,1.7
CC(C)NC(=O)N(C)C[C@@H]1Oc2c(NC(=O)Nc3ccc(C(F)(F)F)cc3)cccc2C(=O)N([C@@H](C)CO)C[C@@H]1C,0.278,-42.8,-15.1,-0.8
COc1ccc(S(=O)(=O)Nc2ccc3c(c2)CC(=O)N([C@@H](C)CO)C[C@H](C)[C@@H](CN(C)Cc2ccc4c(c2)OCO4)O3)cc1,-0.293,31.5,0.1,0.6
C[C@@H]1CN([C@@H](C)CO)C(=O)c2cc(NC(=O)C3CCCCC3)ccc2O[C@H]1CN(C)S(C)(=O)=O,-0.132,x,-6.1,-1.0
CC(C)NC(=O)N(C)C[C@H]1Oc2c(NC(=O)Nc3cccc4ccccc34)cccc2C(=O)N([C@H](C)CO)C[C@@H]1C,0.0389,12.1,13.4,0.1
Cc1noc(C)c1NC(=O)N(C)C[C@H]1Oc2c(NC(=O)c3cnccn3)cccc2C(=O)N([C@H](C)CO)C[C@@H]1C,-0.111,2.3,-19.0,1.1
CCn1c(SCC(=O)Nc2ccc(Cl)cc2)nnc1-c1ccco1,x,x,-37.2,-0.1
C[C@H]1CN([C@@H](C)CO)C(=O)Cc2cc(NC(=O)C3CCCCC3)ccc2O[C@@H]1CN(C)CC1CCCCC1,0.474,-21.5,-18.6,0.3
CN(CC(=O)Nc1ccccc1[N+](=O)[O-])S(=O)(=O)c1ccc(Cl)cc1,x,x,17.1,0.0
NC(=O)Cc1ccc(O)c(Cl)c1,-0.13,2.4,3.9,2.9
CCOC(=O)c1c(NC(=O)CSc2nncn2C)sc(C)c1C,x,x,3.2,0.2
O=C(O)CCCc1cc2cc(Br)ccc2o1,-0.447,-51.2,12.4,0.0
C[C@@H]1CN([C@@H](C)CO)C(=O)c2cccc(NS(=O)(=O)c3ccccc3)c2O[C@H]1CN(C)Cc1ccncc1,-0.224,-24.8,-3.9,1.2
O=C1c2ccccc2C(=O)N1c1nccs1,-0.765,x,10.7,-0.8
COc1ccc(S(=O)(=O)Nc2ccc3c(c2)C(=O)N([C@H](C)CO)C[C@H](C)[C@@H](CN(C)C(=O)NC2CCCCC2)O3)cc1,-0.0556,8.8,-0.8,1.1
C[C@H](CO)N1C[C@H](C)[C@H](CN(C)S(=O)(=O)c2ccc(F)cc2)Oc2c(NC(=O)c3cnccn3)cccc2C1=O,-0.534,3.1,-12.7,1.8
COc1ccc(OC)c(NC(=O)Cn2cnc3sc(C)c(-c4ccccc4)c3c2=O)c1,x,x,8.5,1.1
Cc1cc(C(=O)Nc2cccc3c2O[C@@H](CN(C)Cc2ccccc2)[C@H](C)CN([C@@H](C)CO)C3=O)n(C)n1,0.252,-0.2,0.6,0.3
COc1ccc(CN(C)C[C@@H]2Oc3c(NC(=O)Nc4ccc(C(F)(F)F)cc4)cccc3C(=O)N([C@H](C)CO)C[C@H]2C)cc1,0.286,33.8,46.3,-6.1

# Quoted from the listing.
# MITF inh result of C[C@@H]1CN([C@@H](C)CO)C(=O)c2cccc(NC(=O)C3CC3)c2O[C@H]1CN(C)S(C)(=O)=O is entered as -12.9
# PD-1 reversal result of O=C1c2ccccc2C(=O)N1c1nccs1 is entered as -0.8

# Carrying on.
SMILES,YB-1 expr inh,Hedgehog inh,MITF inh,PD-1 reversal
C[C@H](CO)N1C[C@H](C)[C@H](CN(C)Cc2ccc(-c3ccccc3)cc2)Oc2ccc(NC(=O)Cn3cnnn3)cc2C1=O,-0.00332,-44.9,10.5,0.8
COc1ccc2oc(-c3cccc(NC(=O)COc4ccc(Cl)cc4)c3)nc2c1,x,x,29.8,1.0
C[C@H]1CN([C@@H](C)CO)C(=O)c2cc(NC(=O)C3CC3)ccc2O[C@@H]1CN(C)Cc1ccc2c(c1)OCO2,0.16,x,-13.3,0.4
Cc1ccc(S(=O)(=O)N(C)C[C@@H]2Oc3ccc(NS(=O)(=O)c4ccc(F)cc4)cc3C(=O)N([C@@H](C)CO)C[C@H]2C)cc1,0.0809,x,-4.2,-1.6
C[C@@H]1CN([C@H](C)CO)C(=O)c2cccc(NC(=O)c3ccncc3)c2O[C@@H]1CN(C)S(C)(=O)=O,-0.113,-19.7,-7.7,x
C[C@H](CO)N1C[C@H](C)[C@H](CN(C)C(=O)Nc2cccc3ccccc23)Oc2ccc(NS(=O)(=O)c3cn(C)cn3)cc2CC1=O,-0.0704,-30.5,1.1,0.5
Cc1ccc(S(=O)(=O)Nc2ccc3c(c2)CC(=O)N([C@H](C)CO)C[C@H](C)[C@H](CN(C)C(=O)Nc2ccccc2)O3)cc1,-0.301,-6.0,-6.8,2.5
Cc1noc(C)c1NC(=O)N(C)C[C@@H]1Oc2c(NC(=O)c3nc4ccccc4s3)cccc2C(=O)N([C@H](C)CO)C[C@H]1C,-0.11,2.2,-4.3,0.4
C[C@@H]1CN([C@@H](C)CO)C(=O)c2cccc(NC(=O)NC3CCCCC3)c2O[C@H]1CN(C)Cc1ccc(Cl)c(Cl)c1,-0.117,16.3,31.5,x
O=C1CCC(N2C(=O)c3ccccc3C2=O)C(=O)N1 (centres undefined),-1.32,-20.5,3.0,2.9
COc1ccc(NC(=O)Nc2ccc3c(c2)CC(=O)N([C@@H](C)CO)C[C@H](C)[C@@H](CN(C)C(=O)Nc2c(C)noc2C)O3)cc1,-0.556,-56.7,2.1,1.1
COc1ccc(S(=O)(=O)N(C)C[C@H]2OCCCC[C@@H](C)Oc3ccc(NC(=O)c4ccccc4)cc3C(=O)N([C@H](C)CO)C[C@@H]2C)cc1,0.0377,3.8,5.1,x
C[C@H](CO)N1C[C@H](C)[C@@H](CN(C)Cc2ccc(C(=O)O)cc2)Oc2ccc(NC(=O)Nc3ccccc3)cc2C1=O,-0.284,-9.5,-2.4,0.4
CN1CCN2c3ncccc3Cc3ccccc3C2C1 (centres undefined),-0.283,-16.6,-2.9,-2.3
C[C@H]1CN([C@@H](C)CO)C(=O)Cc2cc(NS(C)(=O)=O)ccc2O[C@@H]1CN(C)C(=O)NC1CCCCC1,-0.142,-25.9,-16.2,0.0
C[C@@H]1CN([C@H](C)CO)C(=O)Cc2cc(NC(=O)Nc3ccc(F)cc3)ccc2O[C@H]1CN(C)S(C)(=O)=O,-0.487,-54.0,-6.8,-1.8
C[C@H]1CN([C@@H](C)CO)C(=O)c2cc(NC(=O)Nc3ccc(F)cc3)ccc2O[C@H]1CN(C)S(=O)(=O)c1cccs1,0.436,x,-29.1,-3.3
C[C@H]1CN([C@@H](C)CO)C(=O)Cc2cc(NC(=O)c3ccncc3)ccc2O[C@H]1CN(C)S(=O)(=O)c1cn(C)cn1,-0.605,x,-9.0,-0.3
Cc1noc(C)c1NC(=O)N(C)C[C@@H]1Oc2c(NC(=O)CCCCCC(=O)Nc3ccccc3N)cccc2C(=O)N([C@@H](C)CO)C[C@H]1C,-0.0288,x,-17.7,1.8
C[C@H]1CN([C@@H](C)CO)C(=O)Cc2cc(NC(=O)Cn3cnnn3)ccc2O[C@H]1CN(C)S(C)(=O)=O,-0.132,x,-11.1,x

# Some entries already given, reduced to PD-1 reversal, YB-1 expr inh and MITF inh:
mol	PD-1 reversal	YB-1 expr inh	MITF inh
Cc1ccc(S(=O)(=O)Nc2ccc3c(c2)CC(=O)N([C@H](C)CO)C[C@H](C)[C@H](CN(C)C(=O)Nc2ccccc2)O3)cc1	2.5	-0.301	-6.8
CC(C)NC(=O)N(C)C[C@H]1Oc2c(NC(=O)Nc3cccc4ccccc34)cccc2C(=O)N([C@H](C)CO)C[C@@H]1C	0.1	0.0389	13.4

# New compounds follow:
SMILES,YB-1 expr inh,Hedgehog inh,MITF inh,PD-1 reversal
O=C(CSc1nnc(-c2ccncc2)n1-c1ccccc1)c1ccc([N+](=O)[O-])cc1,x,x,7.7,-2.3
C[C@@H]1CCCCO[C@@H](CN(C)Cc2ccc(C(=O)Nc3ccccc3N)cc2)[C@@H](C)CN([C@H](C)CO)C(=O)c2cc(NC(=O)c3ccccc3)ccc2O1,-0.181,x,24.2,-1.8
CN(CC(=O)Nc1ccc(Cl)c(C(F)(F)F)c1)S(=O)(=O)c1ccc(F)cc1,x,x,5.4,0.7
CC(C)NC(=O)N(C)C[C@@H]1Oc2ccc(NC(=O)Cn3cnnn3)cc2C(=O)N([C@H](C)CO)C[C@@H]1C,0.386,x,-2.0,5.4
C[C@H](CO)N1C[C@H](C)[C@H](CN(C)S(=O)(=O)c2ccc(F)cc2)Oc2ccc(NC(=O)Cn3cnnn3)cc2CC1=O,0.0995,-17.7,2.5,1.6
C[C@@H]1CN([C@H](C)CO)C(=O)Cc2cc(NC(=O)C3CCCCC3)ccc2O[C@H]1CN(C)C(=O)Nc1ccccc1,-0.123,-13.8,-1.6,x
C[C@@H]1CN([C@H](C)CO)C(=O)c2cccc(NC(=O)Nc3cccc4ccccc34)c2O[C@@H]1CN(C)Cc1ccc(Oc2ccccc2)cc1,-0.16,10.7,17.4,0.7
C[C@H](CO)N1C[C@H](C)[C@H](CN(C)Cc2ccc(Cl)c(Cl)c2)Oc2ccc(NS(=O)(=O)c3ccc(F)cc3)cc2CC1=O,0.0471,-9.2,1.6,-0.4
C[C@@H]1CN([C@@H](C)CO)C(=O)c2cccc(NS(=O)(=O)c3cccs3)c2O[C@H]1CN(C)Cc1ccncc1,-0.286,24.1,2.3,x
C[C@H]1CN([C@@H](C)CO)C(=O)c2cccc(NC(=O)C3CCOCC3)c2O[C@@H]1CN(C)C(=O)NC1CCCCC1,0.0646,-37.7,-6.8,0.6
C[C@@H]1CN([C@H](C)CO)C(=O)c2cc(NC(=O)Nc3cccc4ccccc34)ccc2O[C@H]1CN(C)S(=O)(=O)c1ccc(Cl)cc1,-0.125,-12.8,-10.2,0.3
NNCCc1ccccc1,0.123,-62.6,-16.7,x
C[C@H](CO)N1C[C@H](C)[C@@H](CN(C)Cc2ccc(Oc3ccccc3)cc2)Oc2ccc(NC(=O)CCC(F)(F)F)cc2C1=O,-0.121,x,-7.7,0.3
C[C@@H]1CN([C@H](C)CO)C(=O)c2cccc(NS(=O)(=O)c3ccc(F)cc3)c2O[C@H]1CN(C)Cc1ccc(-c2ccccc2)cc1,0.0908,7.6,2.7,-0.6
COc1ccccc1NC(=O)NCCc1ccncc1,x,x,-9.1,0.1
COCCNS(=O)(=O)c1cc(OC)c(C)cc1C,x,x,-4.0,1.4
Cc1ccc(NC(=O)COc2ccc(Br)cc2CO)cc1,x,x,-32.6,-5.1
C[C@@H]1CN([C@H](C)CO)C(=O)c2cccc(NC(=O)c3nc4ccccc4s3)c2O[C@@H]1CN(C)C,0.428,-7.1,16.6,1.1
CC(=O)Nc1c(Br)c(C2CC2)nn1-c1ccccc1,0.115,-0.5,3.2,0.2
COC(=O)c1ccc(Cl)c(NC(=O)CSc2nc(-c3ccccc3)cc(C(F)(F)F)n2)c1,x,x,41.4,-2.4
COc1ccc(S(=O)(=O)Nc2ccc3c(c2)C(=O)N([C@H](C)CO)C[C@H](C)[C@H](CN(C)Cc2ccc(C(=O)O)cc2)O3)cc1,-0.105,x,-6.4,1.4
Cc1ccc(S(=O)(=O)Nc2cccc3c2O[C@H](CN(C)S(=O)(=O)c2ccc(Cl)cc2)[C@H](C)CN([C@@H](C)CO)C3=O)cc1,-0.238,-10.5,0.2,-0.3
Cc1cc([N+](=O)[O-])ccc1NC(=O)CSc1nnc(-c2cc3ccccc3o2)n1C,x,x,-8.6,1.3
COc1ccc(CN(C)C[C@@H]2Oc3ccc(NC(=O)Nc4ccc(OC)cc4)cc3CC(=O)N([C@H](C)CO)C[C@@H]2C)cc1,0.224,x,-8.8,x
C[C@H](CO)N1C[C@H](C)[C@H](CN(C)CC2CC2)Oc2c(NC(=O)c3cnccn3)cccc2C1=O,-0.317,-11.3,-2.2,-0.5
C[C@@H]1CN([C@H](C)CO)C(=O)Cc2cc(NC(=O)Nc3ccc(F)cc3)ccc2O[C@@H]1CN(C)S(=O)(=O)c1ccc(F)cc1,0.0802,12.3,9.7,x
COc1ccc(NC(=O)N(C)C[C@@H]2Oc3c(NC(=O)c4cc(C)nn4C)cccc3C(=O)N([C@H](C)CO)C[C@@H]2C)cc1,0.0933,-52.1,-5.6,-0.2
C[C@@H]1CN([C@H](C)CO)C(=O)c2cccc(NC(=O)Nc3ccc(C(F)(F)F)cc3)c2O[C@H]1CN(C)S(=O)(=O)c1cn(C)cn1,-0.0913,11.7,-1.2,-0.1
c1ccc(Cc2ccc[n+](Cc3ccccn3)c2)cc1,0.448,x,8.7,1.5
COc1cc(NC(=O)CSc2ccccc2)c(C(=O)O)cc1OC,x,x,-4.1,0.4
COc1ccc(C(=O)NCC(=O)Nc2ccc(C)c(Cl)c2)cc1,x,x,-78.5,0.3
COc1ccc(S(=O)(=O)N(C)C[C@@H]2Oc3c(NS(=O)(=O)c4ccc(Cl)cc4)cccc3C(=O)N([C@@H](C)CO)C[C@H]2C)cc1,-0.194,-38.4,-1.3,0.8

# High-throughput results: PubChem, Broad Institute
